# PK Bst: Pyruvate Kinase; partly purified Bacillus stearothermophilus pyruvate kinase, luminescence ATP production; ribose 5-phosphate activator present at AC10; Potency, µM; actives 1.2% (n = 51,000); AID 361, 2006; in the data active means potency below about 11 µM; inconclusive means mostly about 12 µM to 25 µM; inactive means weaker than that;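 the screen sought inhibitors and activators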;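 also: potency is read from the fitted curve at half-maximal effect; scaled between full activation by ribose 5 phosphate and full inhibition by luteolin; about four in five hits inhibit and the cells do not say which; series up to 57 µM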
# TsaE inh: qHTS Assay for Inhibitors of YjeE | purified YjeE, fluorescence polarisation of a bound ADP probe | Potency, µM | actives 0.05% (n = 71,000) | AID 605, 2007; active = well fitted falling curve; inconclusive = weaker or top-dose-only fall, or a rising curve; inactive = flat or poorly fitted curve;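 also: top concentration of the series not given in the record; excess ADP was the control for the full effect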
#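 Fluorescence polarization of a BODIPY Texas Red–ADP probe (2 uM) bound to purified YjeE (10 uM) was read after 15 min room-temperature incubation with compounds. Loss of polarization marks inhibitors; ADP serves as titrated control.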
# An asterisk follows results filed as active; i = inactive; . = no result given.
# Below each SMILES – TsaE inh	PK Bst
> Cc1ccc(C(C(=O)NC2CCCCC2)N(C(=O)c2csnn2)C2CCCC2)o1 (centres undefined)
  i	>57
> CCOc1cccc(OCCCNCCCOC)c1
  i	.
> CC/C(=C(\c1ccccc1)c1ccc(OCCN(C)C)cc1)c1ccc(O)cc1
  i	.
> O=C(c1ccncc1)c1nccn1-c1ccccn1
  i	>57
> O=c1[nH]c(=O)n(C2CCCO2)cc1Br (centres undefined)
  i	>57
> CCN(CC)CCOC(=O)c1cccc(OC)c1
  i	>57
> Cc1cccc(CNc2ncncc2-c2cccnc2)c1
  i	.
> CC(=O)Nc1cccc(NC(=O)C2CCCN2C(=O)Nc2cccc(F)c2)c1 (centres undefined)
  i	>57
> O=C1CC(N2CCN(c3ccc(S(=O)(=O)N4CCCC4)cc3)CC2)C(=O)N1c1ccc(F)cc1 (centres undefined)
  i	>57
> Cc1nn(CC(=O)Nc2ccccc2)c(=O)c2ccccc12
  i	>57
> C1CCCC1
  i	.
> [O-][N+]12CC[N+]([O-])(CC1)c1ccccc12
  i	>57
> CNC(=O)NC(=O)CSc1ccc(NC(C)=O)cc1
  i	>57
> Cn1nc(-c2ccc(Cl)cc2)c2cc(C(=O)NCCCN3CCOCC3)sc21
  i	.
> Cc1ccc2cc(CN(CC(C)C)C(=O)C3CCCO3)c(=O)[nH]c2c1 (centres undefined)
  i	>57
> CN(C)S(=O)(=O)c1ccc(C(=O)OCC(=O)c2ccc(OC(F)F)cc2OC(F)F)cc1
  i	>57
> COc1ccccc1/C=c1\sc2nc(-c3ccncc3)nn2c1=O
  i	>57
> Clc1c(CSc2nc3ccccc3o2)nc2ccccn12
  i	.
> Cc1ccc(S(=O)(=O)/N=C(\CN2CCCCC2)N2CCOCC2)cc1
  i	.
> O=c1c2ccccc2oc2ncccc12
  i	i
> Cc1ccc(F)cc1NC(=O)C1CCN(c2cnccn2)CC1
  i	>57
> Cc1nn(C)cc1CN(C)C(=O)c1cc2nc(-c3ccco3)cc(C(F)(F)F)n2n1
  i	>57
> COC(=O)CCCCCNc1ccc(C(=O)OC)cc1N
  i	>11
> CC(=O)Oc1ccc(-c2ccc(C(=O)O)cc2)cc1
  i	.
> Cc1ccc(Cl)cc1N1CCN(C(=O)c2cc3c(=O)n(C)c4ccccc4c3n2C)CC1
  i	.
> COc1cccc(Nc2cc(C)nc3ccccc23)c1
  i	>57
> COCCCNCCOc1cc(C(C)C)ccc1C
  i	>57
> COc1cc(C2NC(=O)NC(C)=C2C(=O)OC(C)(C)C)ccc1OCC(N)=O (centres undefined)
  i	>57
> CCOc1ccc(C2C(C#N)=C(N)Oc3cc(C)n(Cc4ccco4)c(=O)c32)cc1OC (centres undefined)
  i	>57
> Nc1ccc(O)cc1C(=O)OCC(=O)C12CC3CC(CC(C3)C1)C2
  i	>57
> Cc1cc(C)c2cc3c(ccn3C3OC[C@H](O)[C@H](O)[C@H]3O)cc2n1 (some centres undefined)
  i	>57
> c1nnc(NC2=NCCCCC2)s1
  i	>57
> C=CCOC(=O)C(C#N)c1nc2ccccc2nc1N1CCN(Cc2ccccc2)CC1 (centres undefined)
  i	>57
> Cc1ccccc1N1C(=O)C2ON(c3ccccc3)C(c3ccncc3)C2C1=O (centres undefined)
  .	>26
> COc1cc2c(cc1OC)C(C)N(C(=O)c1cc3n(n1)C(C(F)(F)F)CC(c1ccco1)N3)CC2 (centres undefined)
  i	>57
> CC1=C(C(=O)N2CCCCCC2)C2(CCC(C)CC2)OC1=O (centres undefined)
  i	>57
> CCOC(=O)c1sc2c(c1C)c(=O)c(C(=O)OCC)cn2CC
  .	>26
> CCOc1ccc2nc(NCCNC(=O)Nc3cccc(C)c3)c(C#N)cc2c1
  i	>57
> CC1(C)CC(NC(=O)CCC2CCCC2)CC(C)(C)N1
  i	>57
> Nc1nnc(CCS(=O)(=O)c2cc(Cl)ccc2Cl)s1
  i	.
> CCCCOc1cccc(OCCCC)c1C(=O)Nc1cc(C)on1
  i	>57
> CCN(CC)c1ccc(C(=O)OCC(=O)c2ccco2)cc1
  i	>57
> CCn1c(=O)c2cc(C(=O)N3CCN(C(=O)c4ccco4)CC3)sc2c2ccccc21
  i	.
> Cc1[nH]nc2c1C1(CCN(C(=O)OCc3ccccc3)CC1)C(C#N)=C(N)O2
  i	>57
> Cc1noc(C)c1S(=O)(=O)N1CCC(C(=O)N2CCN(c3ccccc3Cl)CC2)CC1
  i	>57

# Reprinted from the part before: six entries, followed by the next part.
# Below each SMILES – TsaE inh	PK Bst
> Nc1nnc(CCS(=O)(=O)c2cc(Cl)ccc2Cl)s1
  i	.
> CCCCOc1cccc(OCCCC)c1C(=O)Nc1cc(C)on1
  i	>57
> CCN(CC)c1ccc(C(=O)OCC(=O)c2ccco2)cc1
  i	>57
> CCn1c(=O)c2cc(C(=O)N3CCN(C(=O)c4ccco4)CC3)sc2c2ccccc21
  i	.
> Cc1[nH]nc2c1C1(CCN(C(=O)OCc3ccccc3)CC1)C(C#N)=C(N)O2
  i	>57
> Cc1noc(C)c1S(=O)(=O)N1CCC(C(=O)N2CCN(c3ccccc3Cl)CC2)CC1
  i	>57
> NC(=O)COc1ccc(NC(=O)OCc2ccccc2)cc1
  i	.
> Cn1c(CSc2ncccn2)nnc1SCC(=O)N1CCCc2ccccc21
  i	>57
> CC(C)OCCCNC(=O)c1sc(=S)n(C)c1N
  i	>57
> Cc1ccc(-c2nnc(N3CCN(S(C)(=O)=O)CC3)c3ccccc23)cc1
  i	>57
> OC(CN1CCN(c2ccccc2)CC1)c1ccc2c(c1)CCN2 (centres undefined)
  i	.
> COc1ccc(S(C)(=O)=O)cc1S(C)(=O)=O
  i	>57
> O=C(Nc1cnc2ccccc2c1)c1ccco1
  i	i
> CC(=O)N1CCC(N(C(=O)Nc2ccc(C)c(C)c2)C2CCCC2)CC1
  i	>57
> O=S(=O)(c1ccc(F)cc1)N1CCC(O)(c2ccc3c(c2)OCO3)CC1
  i	>11
> Cc1ccc2nc(-c3ccc(S(=O)(=O)N4CCOCC4)cc3)cn2c1
  i	>57
> Cc1ccc(C(=O)NCCCN2CCOCC2)cc1N1CCCC1=O
  i	>57
> CCN1CCc2c(sc3c2c(NCc2ccco2)nc2nnnn23)C1
  i	>57
> Cc1cc(=O)oc2c(C)c(OCC(=O)N(C)C)ccc12
  i	>57
> Cc1cc(C(=O)COC(=O)CN(C)S(=O)(=O)c2ccc(Cl)cc2)c(C)n1CC1CCCO1 (centres undefined)
  i	>57
> CCC(O)OC(O)CC (centres undefined)
  i	.
> O=C1COc2ccc(C(=O)NCc3ccco3)cc2N1
  i	>57
> CC1CCc2nc3ccc(S(=O)(=O)N4CCC(C(=O)NC5CCCC5)CC4)cc3c(C(=O)O)c2C1 (centres undefined)
  i	.
> CCCCOC(=O)n1c(SCC(=O)N(C)C)nc2ccccc21
  i	>57
> O=C(c1ccncc1)N1CCC[C@@]2(CCN(c3ncccn3)C2)C1
  i	.
> O=C(CCN1C(=O)C2C3C=CC(C3)C2C1=O)NCc1cccnc1 (centres undefined)
  i	>57
> O=C(Cn1c(=O)sc2ccccc21)NCc1ccccn1
  i	.
> CCn1c(=S)sc2c(=O)n(-c3ccccc3)c(SCC(=O)NCc3ccco3)nc21
  i	>57
> CCOc1ccc(-c2nnc3ccc(SC)nn23)cc1
  i	.
> CC(C)N(Cc1nc(-c2ccc(Cl)cc2)no1)C(=O)CCC1CCCC1
  i	.
> COC(=O)c1ccc(-c2nc(-c3cccs3)no2)cc1
  i	.
> CCc1nc2oc3cc(OC)ccc3c(=O)c2c(=O)n1-c1ccccc1
  i	>57
> O=C(NCc1ccco1)c1sc(=S)n2c1[nH]c(=O)c1ccccc12
  i	i
> CSc1nc(NCCOCCO)c2sc3nc(-c4ccco4)c4c(c3c2n1)CCC4
  i	>57
> COc1ccc(CC(=O)NC(C)c2nnc(SCC(=O)Nc3nc(C)cs3)n2C)cc1 (centres undefined)
  i	>57
> CCC(Sc1ccc2nnc(-c3ccc(F)cc3)n2n1)C(=O)O (centres undefined)
  i	.
> CCS(=O)(=O)c1nnnn1-c1ccccc1S(C)(=O)=O
  i	>57
> O=C(CCNS(=O)(=O)c1cccc2nonc12)NC1CCCc2ccccc21 (centres undefined)
  i	.
> O=C(CCCCn1c(=O)[nH]c2ccsc2c1=O)NCc1cccnc1
  i	>57
> O=C(c1ccc(COc2c(F)c(F)cc(F)c2F)o1)N1CCN(c2ccc(Cl)cc2)CC1
  i	>57
> CCOC(=O)c1oc2ccccc2c1NC(=O)c1ccc(S(=O)(=O)N2CCCC2)cc1
  i	>57
> CCN(CC)C(=O)N1CCC(NC(=O)c2ccccc2)CC1
  i	>57
> Cc1cc(C)cc(N(CC(=O)NCc2ccco2)S(=O)(=O)c2c(C)noc2C)c1
  i	.
> CC(=O)c1cccc(N(CC(=O)NCC2CCCO2)C(=O)CCC(=O)Nc2cc(C)on2)c1 (centres undefined)
  i	>57
> CCn1c(SCC(=O)c2cc(OC)ccc2OC)nnc1-c1ccncc1
  i	>57
> COc1ccc(N2CCN(S(=O)(=O)/C=C/c3ccccc3)CC2)cc1
  i	>57
> COc1ccc2[nH]c3c(NCCN(C(C)C)C(C)C)ncnc3c2c1
  i	>11
> Cc1oc(-c2ccccc2)nc1Cn1cccc1C1=NC(c2ccccc2)CO1 (centres undefined)
  i	>57
> NC(=O)N[C@H](CC(=O)O)C(=O)O
  i	.
> COc1cc(-c2nc(N)n[nH]2)cc(OC)c1OC
  i	>57
> CCSc1nnc(NC(=O)C(CC)Oc2ccccc2)s1 (centres undefined)
  i	>57
> Cc1ccc(-n2ncc3c(N4CCCC4)ncnc32)c(C)c1
  .	i
> COc1ccc(-n2c(SC3CCOC3=O)nc3ccccc32)cc1 (centres undefined)
  i	>57
> COc1ccc(N2CCN(C(=O)CC3NC4CCCCC4NC3=O)CC2)cc1 (centres undefined)
  i	>57
> CCC(c1nnnn1CCOC)N1CCN(C(=O)c2ccco2)CC1 (centres undefined)
  i	>57
> COc1ccc(-c2nnc(SCCC(=O)O)n2-c2ccccc2)cc1
  i	>57
> COc1ccc(-c2noc(-c3ccccc3-c3ccccc3)n2)cc1OC
  i	>57
> COC(=O)C1=C(C)N=C2SCCC(=O)N2C1/C=C/c1ccccc1 (centres undefined)
  i	.
> COc1ccc(CCNC(=O)CN(C)S(=O)(=O)c2cccc3nsnc23)cc1OC
  i	>57
> CCC(=O)Nc1sc2c(c1C#N)CC(C)(C)NC2(C)C
  i	.
> CCOCCCn1c(=S)[nH]c2cc3c(cc2c1=O)OCO3
  i	>57
> COCCn1c(SCCN2CCCCC2)nc2ccccc2c1=O
  i	>57
> C=CCn1c(C#N)c(N)sc1=N
  i	>57
> CCc1nccn1S(=O)(=O)c1ccc(Br)cc1Br
  i	>11
> CCCn1c(-c2ccc(F)cc2)nc2c(NCCN3CCOCC3)nc(C)nc21
  i	.
> Cc1ccc2[nH]c(C(=O)O)c(NC(=O)CN3CCN(c4cccc(C)c4C)CC3)c2c1
  i	>57

# Two entries from above, with values ahead of the structure.
TsaE inh,PK Bst,SMILES
i,>57,c1nnc(NC2=NCCCCC2)s1
i,>57,Cc1ccc2[nH]c(C(=O)O)c(NC(=O)CN3CCN(c4cccc(C)c4C)CC3)c2c1

# Of the compounds above, 2 contain a CF3 group:
# Below each SMILES – TsaE inh	PK Bst
> Cc1nn(C)cc1CN(C)C(=O)c1cc2nc(-c3ccco3)cc(C(F)(F)F)n2n1
  i	>57
> COc1cc2c(cc1OC)C(C)N(C(=O)c1cc3n(n1)C(C(F)(F)F)CC(c1ccco1)N3)CC2 (centres undefined)
  i	>57

# (cont.)
# Below each SMILES – TsaE inh	PK Bst
> CCc1ccc(N(CC(=O)O)S(=O)(=O)c2c(C)noc2C)cc1
  i	.
> Cn1c([N+](=O)[O-])cnc1COC(N)=O
  i	>26
> CN1CCN(S(=O)(=O)c2ccc(NC(=O)c3cccc(S(=O)(=O)N4CCCC4)c3)cc2)CC1
  i	.
> CC1CCc2sc3ncn4nc(C(=O)NCc5ccco5)nc4c3c2C1 (centres undefined)
  i	>57
> CC(C)c1cc(C(F)(F)F)nc(NNc2nc(C(C)C)cc(C(F)(F)F)n2)n1
  i	.
> CC(=O)Nc1ccc2c(c1)CCC2=O
  i	>57
> O=C(CCN1C(=O)C2C3C=CC(C3)C2C1=O)NC1CCCc2ccccc21 (centres undefined)
  i	>57
> CCN(CC)C(=O)CSc1nnc(CCCCCNC(=O)OC(C)(C)C)o1
  i	>57
> CC1(C)CC(=O)C2=C(C1)OC(c1ccncc1)C(C#N)=C2N (centres undefined)
  i	>57
> COc1ccc(NC(=O)c2ccc(-c3ccc(-c4noc(C)n4)cc3C)cc2)cc1N1CCN(C)CC1
  i	.
> CC1CCCN(c2ccc(C(=O)NCc3cccs3)cn2)C1 (centres undefined)
  i	>57
> CC(=O)c1cc(C)oc1C
  i	.
> COC(=O)c1ccc(CSc2nc(-c3ccc(OC)cc3)nc3c2c(=O)n(C)c(=O)n3C)o1
  i	>57
> Cc1cc(N)n2ncc(-c3cccc(Br)c3)c2n1
  i	.
> Cn1c(=O)c2c(ncn2CC(=O)N2CCc3ccccc3C2)n(C)c1=O
  i	.
> O=C(NCC1OCCc2ccccc21)c1ccco1 (centres undefined)
  i	.
> O=C(c1ccco1)N1CCN(S(=O)(=O)c2ccc(C3CCCCC3)cc2)CC1
  i	>57
> Cc1nc2ccccc2c2oc(C(=O)N3CCC(N4CCCCC4)CC3)cc12
  i	.
> O=S(=O)(c1cccc(-c2nnco2)c1)N1CCCC1
  i	>57
> CCCNS(=O)(=O)c1cc(Br)cc2c1N(C(=O)CC)CC2
  i	>57
> Cn1c(=Nc2ccc(N3CCOCC3)cc2)ccc2ccccc21
  i	>57

# Compound activity from PubChem BioAssay.

# Not all compounds are listed. The share of hits here may be higher or lower than overall.
